MMP13 inh: MMP13 (human) collagenase inhibition | hit rate 0.07% among 65,000 | MMP-13 fTHP FRET cleavage, Mca fluorescence | P45452 | inhibition, % at 4 µM;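 active = inhibition above the mean of compound-free control plate wells plus 3 SD, cut at about 14% in these data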;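 also: 0% = DMSO wells and 100% = wells with reference MMP-13 inhibitor after basal subtraction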
Cdc25B inh: human M-phase inducer phosphatase 2 inhibition. recombinant Cdc25B, OMFP fluorescence Ex485/Em525. inhibition, %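 (compounds tested at 10 µM final in the well)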. hit rate 0.1% among 65,000. AID 368; in the data active = inhibition above about 50%
MKP-1 inh: blocks human MKP-1 phosphatase activity; P28562; recombinant MKP-1, OMFP hydrolysis fluorescence; inhibition, %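 (compounds tested at a single concentration somewhere between 10 and 100 µM)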; hit rate 0.15% among 65,000;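 active = inhibition above about 50%, limit read from the data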;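 also: 0% = DMSO max control wells and 100% = wells with enzyme stopped by NaOH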
Target sequence (P28562 whole entry, looked up): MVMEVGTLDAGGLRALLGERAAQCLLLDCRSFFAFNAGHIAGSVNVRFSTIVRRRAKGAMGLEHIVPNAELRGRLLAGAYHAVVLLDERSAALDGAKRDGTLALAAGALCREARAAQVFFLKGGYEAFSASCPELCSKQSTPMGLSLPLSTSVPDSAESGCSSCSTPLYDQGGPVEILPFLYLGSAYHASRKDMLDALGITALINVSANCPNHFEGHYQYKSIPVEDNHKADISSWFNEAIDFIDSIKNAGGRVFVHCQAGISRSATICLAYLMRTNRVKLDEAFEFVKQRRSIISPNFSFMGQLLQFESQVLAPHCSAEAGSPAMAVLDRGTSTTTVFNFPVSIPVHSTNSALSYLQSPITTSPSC
FXIIa inh mix: factor XIIa (human) inhibition, mixture screen; inhibition, % at 5 µM; P00748; hit rate 0.2% among 62,000; purified FXIIa, fluorogenic substrate, pooled mixtures;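 also: 0% = enzyme without compound and 100% = no enzyme blank; some results filed as inactive read as strong as hits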
A340 absorber: compounds absorbing at 340 nm; compound absorbance at 340 nm, fold over control; fold change at 10 µM; 65,000 tested, under 10 active;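 active = at 10 µM dose, initial 340 nm absorbance at least 2 fold that of control wells; inactive = change under 2 fold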;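 also: initial absorbance extrapolated from kinetic A340 decline of NADH oxidation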
AP ELISA ortho: alternative pathway complement inhibition, orthogonal assay; hit rate 0.08% among 62,000; Human serum alternative complement pathway, LPS-coated ELISA, C3 deposition; tested in compound mixtures; inhibition, % at 5 µM;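 active = inhibition above 30% in each of the two pooled mixtures holding the compound, so the lower value exceeds 30%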;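 also: 0% = serum in Mg-EGTA without compound and 100% = EDTA serum blank; some compounds past the cut are filed as inactive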
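Test system: human serum complement alternative pathway, C3 deposition onto LPS / Medium: Mg2+-EGTA GVB++ buffer containing human serum at 1:15 dilution / Probe or stimulus: Plate-bound LPS / Times: 1 h at 37 °C / Signal: ELISA with HRP anti-human C3 antibody, TMB substrate, absorbance 450 nm / Measure: percent inhibition / Repeats: two pool placements per compound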
Hsp90 inh: displaces geldanamycin probe from tumor Hsp90. NCI-N417 lysate Hsp90, Cy3B-geldanamycin FP displacement. inhibition, % at 30 µM. hit rate 0.35% among 64,000. P07900;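 active = inhibition above 50%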;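 also: 0% = tracer plus lysate wells and 100% = tracer alone without lysate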
FXIa mix inh: blocks human factor XIa in pooled compound mixtures. P03951. purified FXIa, fluorogenic substrate. inhibition, % at 5 µM. hit rate 0.19% among 62,000. AID 680;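 also: each value is inhibition by a whole ten-compound pool holding the compound; 0% = enzyme with no mixture and 100% = wells lacking enzyme; strong numbers were not always called active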
Target sequence (P03951 19-387 limits assumed): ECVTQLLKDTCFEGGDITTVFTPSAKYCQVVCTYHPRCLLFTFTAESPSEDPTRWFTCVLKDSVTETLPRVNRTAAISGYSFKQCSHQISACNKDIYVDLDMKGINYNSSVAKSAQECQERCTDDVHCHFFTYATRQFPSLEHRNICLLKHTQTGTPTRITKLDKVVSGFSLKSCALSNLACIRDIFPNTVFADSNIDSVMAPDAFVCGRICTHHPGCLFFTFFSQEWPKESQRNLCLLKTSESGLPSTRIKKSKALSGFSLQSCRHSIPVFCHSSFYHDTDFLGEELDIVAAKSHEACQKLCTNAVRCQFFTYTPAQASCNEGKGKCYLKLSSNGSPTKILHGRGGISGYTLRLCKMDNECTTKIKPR
Target sequence (P03951 388-625 limits assumed): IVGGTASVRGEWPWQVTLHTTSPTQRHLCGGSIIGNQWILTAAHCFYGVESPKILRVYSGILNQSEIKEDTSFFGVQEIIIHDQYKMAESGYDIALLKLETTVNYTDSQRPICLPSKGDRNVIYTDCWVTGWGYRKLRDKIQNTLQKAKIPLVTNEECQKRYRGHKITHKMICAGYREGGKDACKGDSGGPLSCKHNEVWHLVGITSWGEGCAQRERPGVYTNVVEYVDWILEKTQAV
Numbers without * were called inactive; · = no result given. Rule as the data show it, unless noted: active = inhibition above about 20% (passing the limit was not always enough); inactive = the rest.

SMILES	MMP13 inh	Cdc25B inh	MKP-1 inh	FXIIa inh mix	A340 absorber	AP ELISA ortho	Hsp90 inh	FXIa mix inh
COc1ccc(C(=O)Nc2cccc3c2C(=O)NC3=O)cc1S(=O)(=O)N1CCOCC1	0	-6	13	4	1.1	4	-3	2
CS(=O)(=O)N(CC(=O)NCCSC1CCCCC1)c1ccc2c(c1)OCO2	4	-15	-5	-20	1	20	-4	7
NC(=O)c1ccsc1NC(=O)COc1ccccc1	3	-2	19	-13	1	15	16	6
CCC(=O)N1C(=O)CCN(C(C)=O)c2ccccc21	1	-5	-1	-1	1	3	0	7
CC(C(=O)N1CCOCC1)N1C(=O)c2ccccc2C1=O (centres undefined)	2	3	-14	5	1	11	-6	8
COc1ccccc1-c1n[nH]c(=S)o1	-4	-16	-3	-14	1.1	6	-4	6
O=C(CSc1nnnn1-c1ccc2c(c1)OCCO2)Nc1nc2c(s1)CCCC2	4	-6	-13	-25	1	5	-1	3
CCC(C)NC(=O)C1CC(c2cccc(OC)c2)=NO1 (centres undefined)	0	2	-4	-20	1	15	-1	8
CCSCCOC(=O)C1=C(C)NC(=O)NC1c1cc(OC)ccc1OC (centres undefined)	4	-9	6	11	1	1	-2	7
CCOCCCNC(=O)C1CCCCN1S(=O)(=O)c1ccc(F)cc1 (centres undefined)	-3	-5	-8	4	0.97	11	-6	3
Cc1ccc(N2C(=O)c3sc4nnc(C)c(=O)n4c3C2=O)cc1	-6	5	-18	·	1.1	·	-3	·
CCOC(=O)c1ccccc1NC(=O)CSc1ncc(C(=O)OCC)c(N)n1	0	0	40	-22	1	17	-1	-7
CN(c1ccccc1)c1nc(-n2ccnc2)nc(-n2ccnc2)n1	1	-6	-16	3	1	16	2	0
CCOc1ccc(C(=O)NCCCn2ccnc2)cc1	0	-8	-7	3	1	0	-5	0
CCOC(=O)c1ccccc1NC(=O)COc1ccccc1	1	-7	-2	-3	1	20	-2	4
CSc1ccccc1NC(=O)CN(c1ccccc1)S(=O)(=O)N(C)C	0	1	0	2	0.99	3	1	2
Cc1nc2ccccc2c2oc(C(=O)Nc3ccc4c(c3)OCCO4)cc12	2	-7	22	4	1	14	5	-2
COc1cccc2sc(Nc3nc(C)c(C(C)=O)s3)nc12	-13	-6	41	4	1.1	-9	1	-7
CCC(=O)Nc1nc2ccccc2n1CCN(C)C	3	10	-30	·	1	·	1	·
COc1cccc(C2=NOC(C(=O)NC(C)C)C2)c1 (centres undefined)	1	5	-5	2	1	4	1	5
CC1(C)CC(=O)C(C=NCCN2CCN(C(=O)C34CC5CC(CC(C5)C3)C4)CC2)=C(O)C1	-10	9	-9	·	1	·	-3	·
CCOC(=O)c1cnc(SCC(=O)Nc2cc(C(F)(F)F)ccc2N2CCOCC2)nc1N	2	2	-5	3	1	4	1	5
CCOC(=O)c1ccccc1NC(=O)c1ccc(NS(C)(=O)=O)cc1	4	-4	9	2	1	12	-3	-15
CCOC(=O)N1CCN(C(=O)Nc2ccc3nc(C)sc3c2)CC1	3	-2	-1	-24	1	5	-8	5
CCCOC(=O)c1ccc(OC(=O)c2ccco2)cc1	-4	-4	5	1	1.1	31	-1	4
COc1cc(-c2nc3ccccn3c2NCC2CCCO2)ccc1O (centres undefined)	-48	8	-48	19	1.1	-5	2	2
O=C(NCCN1CCCCC1)c1cc2ccccc2[nH]1	-8	-11	-7	4	1	5	-3	-2
CCC(=O)Nc1sccc1C(=O)OC	1	-1	6	1	1	8	·	9
Cc1cc(NC(=O)c2ccc(NC(=O)C(C)Oc3ccccc3)cc2)no1 (centres undefined)	4	-12	3	1	1	7	0	6
CCN(CC)CC(=O)Nc1cc(C)c2c(=O)oc3ccccc3c2n1	-2	-4	2	-13	1.1	5	-2	-1
COC(=O)c1ccccc1NC(=O)CN1CCC(NC(=O)c2ccccc2C)CC1	-3	-16	-6	6	1	0	0	14
Cc1ccc(NC(=O)OCC(F)(F)C(F)F)cc1NC(=O)OCC(F)(F)C(F)F	7	2	7	-4	1	17	0	11
COCC(=O)Nc1cc(OC)c(Cl)cc1OC	5	-10	-13	7	1	7	-2	10
O=C(NCCc1c[nH]c2ccccc12)c1cnc2sccn2c1=O	7	-5	20	-5	1.2	7	0	9
O=C(NC1(C(F)(F)F)C(=O)Nc2c1c(=O)[nH]c(=O)n2-c1ccccc1)c1cccnc1 (centres undefined)	0	17	-20	·	1	·	-3	·
Cc1cccc(Nc2nc3c(c(=O)n(C)c(=O)n3C)n2Cc2ccccc2)c1	0	-9	3	5	1	-2	2	-3
CCCSCCCNC(=O)CC1Oc2ccccc2NC1=O (centres undefined)	2	-9	7	7	1	20	0	9
Cc1n[nH]c(=O)nc1N1CCN(c2ccccc2)CC1	-1	-6	-8	3	0.99	4	-1	7
COc1ccc(CC(=O)Nc2cc(C)c3c(=O)oc4ccccc4c3n2)cc1	2	2	4	-8	1.1	26	-7	7
Cc1noc(C)c1CSc1nnc2sc3ccccc3n12	0	-9	6	0	0.99	6	0	1
C=CCn1c(SCC(=O)/C(C#N)=C(\C)N)nc2sc(CC)cc2c1=O	-3	4	1	10	1.1	8	-3	10
COC(=O)Sc1nc(N2CCOCC2)c2c(c1C#N)CC(C)(C)OC2	1	-32	-16	·	1.1	·	-2	·
COCC(C)N=Cc1c(O)[nH]c2ccccc12 (centres undefined)	4	-3	3	-17	1.2	4	2	-23
COc1cc(NC(=O)c2c(F)c(F)c(F)c(F)c2F)c(OC)cc1Cl	1	-11	9	-15	1	-8	3	-11
CCC1c2ccc(C)n2CCN1C(=O)Nc1ccc(F)cc1 (centres undefined)	-3	-3	-7	3	1	18	-2	7
O=C(CC1Oc2ccccc2NC1=O)NC1CC1 (centres undefined)	-1	-11	2	-3	1	19	1	22
Brc1c(CSc2nnc(-c3ccco3)o2)nc2ccccn12	2	-9	9	5	1	10	-3	9
Cc1ccc(-n2nnc3ccccc3c2=O)cc1C	-3	0	-7	4	1.1	14	-3	9

Two compounds from above, reduced to Hsp90 inh.
SMILES,Hsp90 inh
NC(=O)c1ccsc1NC(=O)COc1ccccc1,16
CCC(=O)N1C(=O)CCN(C(C)=O)c2ccccc21,0

Reprinted at random: 6 entries already listed, in no set order.
SMILES	MMP13 inh	Cdc25B inh	MKP-1 inh	FXIIa inh mix	A340 absorber	AP ELISA ortho	Hsp90 inh	FXIa mix inh
Cc1n[nH]c(=O)nc1N1CCN(c2ccccc2)CC1	-1	-6	-8	3	0.99	4	-1	7
COC(=O)Sc1nc(N2CCOCC2)c2c(c1C#N)CC(C)(C)OC2	1	-32	-16	·	1.1	·	-2	·
Cc1ccc(-n2nnc3ccccc3c2=O)cc1C	-3	0	-7	4	1.1	14	-3	9
Cc1noc(C)c1CSc1nnc2sc3ccccc3n12	0	-9	6	0	0.99	6	0	1
COc1ccc(CC(=O)Nc2cc(C)c3c(=O)oc4ccccc4c3n2)cc1	2	2	4	-8	1.1	26	-7	7
CCCSCCCNC(=O)CC1Oc2ccccc2NC1=O (centres undefined)	2	-9	7	7	1	20	0	9

(cont.)
SMILES	MMP13 inh	Cdc25B inh	MKP-1 inh	FXIIa inh mix	A340 absorber	AP ELISA ortho	Hsp90 inh	FXIa mix inh
O=C(Nc1ccccn1)C1CCN(S(=O)(=O)c2cccs2)CC1	3	-1	22	-1	1	-2	2	4
CC1CCN(S(=O)(=O)c2cccc(C(=O)Nc3ccccn3)c2)CC1	2	-6	-4	-19	1.1	5	0	-9
COc1ccccc1N1CCN(C(=O)c2ccc3c(=O)n(Cc4ccco4)c(=S)[nH]c3c2)CC1	4	-14	38	3	1.1	8	-4	9
O=C(Nc1ccc(C2CCCCC2)cc1)C1CCCN(c2ncccn2)C1 (centres undefined)	-9	-2	1	-18	1.1	-4	0	-4
CCOc1ccc(N(CC(=O)N2CCN(c3ccccc3)CC2)S(=O)(=O)c2c(C)noc2C)cc1	3	-20	5	10	1.1	11	0	7
Cc1cc(C(=O)CSc2nnc(-c3ccncc3)n2-c2ccccc2)c(C)n1C	-1	-1	36	-4	1.1	7	-1	6
CCOC(=O)c1cnc(SCC(=O)Nc2ccccc2N2CCOCC2)nc1N	-6	-17	-1	9	1.1	7	1	-2
COc1ccc(N=Cc2c(O)[nH]c3ccccc23)cc1OC	-2	9	-1	2	1.1	6	20	-3
O=S(=O)(Nc1cccnc1)c1ccc2c(c1)OCCO2	1	8	-5	2	0.98	22	-2	8
Cc1nc2cc(C(=O)O)ccc2n1-c1ccccc1	6	-6	4	-12	1	19	-1	0
O=C(Cc1cccs1)Nc1cccnc1	1	0	5	-2	1	-3	-3	-7
CCCCN(CC)S(=O)(=O)c1ccc(C(=O)Nc2nnc(CSC)o2)cc1	3	-8	-7	-1	0.99	16	-1	3

Ordered by the number under A340 absorber (descending): four from the list above
SMILES	A340 absorber
COc1ccccc1N1CCN(C(=O)c2ccc3c(=O)n(Cc4ccco4)c(=S)[nH]c3c2)CC1	1.1
O=C(Cc1cccs1)Nc1cccnc1	1
CCCCN(CC)S(=O)(=O)c1ccc(C(=O)Nc2nnc(CSC)o2)cc1	0.99
O=S(=O)(Nc1cccnc1)c1ccc2c(c1)OCCO2	0.98

The results go on.
SMILES	MMP13 inh	Cdc25B inh	MKP-1 inh	FXIIa inh mix	A340 absorber	AP ELISA ortho	Hsp90 inh	FXIa mix inh
CC(=O)/C(C(=N)N1CCN(c2cccc(Cl)c2)CC1)=C(\C)O	0	-7	-7	-21	1	1	-8	2
COc1ccc(-c2c3c(=O)n(C)c(=O)n(C)c3cn2-c2ccccc2)cc1	0	4	26	2	1	12	1	9
O=C(Nc1ccc2c(c1)OCO2)C1CCCCN1S(=O)(=O)c1ccc(F)cc1 (centres undefined)	-1	0	4	-13	0.95	11	-5	9
COC(=O)c1ccc(NC(=O)C2CCCN2S(=O)(=O)c2ccc(F)cc2)cc1 (centres undefined)	-4	7	-5	3	1	-1	1	2
O=C(NCCN1CCCC1)C1(S(=O)(=O)c2ccc(Cl)cc2)CC1	2	0	0	8	1	16	0	8
COc1ccc(C2=NOC(C(=O)NCCN3CCOCC3)C2)cc1 (centres undefined)	2	9	7	7	1	18	-3	12
CCc1ccc(N2C(=O)c3sc4nnc(C)c(=O)n4c3C2=O)cc1	-5	-4	6	6	1.1	6	-1	3
COC(=O)c1ccc(CSc2nc(-c3ccco3)cc(C(F)(F)F)n2)o1	-1	-3	23	·	1.1	·	-7	·
O=S(=O)(NCCCN1CCN(c2ccccc2F)CC1)c1cccc2cccnc12	0	-22	1	0	1	12	-2	6
c1ccc(CSc2ncn(-c3ccccc3)n2)cc1	-1	-25	1	0	1	13	-2	-5
NC(=O)c1oc2ccc(Cl)cc2c1NC(=O)CN1CCOCC1	0	-2	20	-4	1	0	2	6
COC(=O)c1cc(Br)c(=O)n(Cc2ccc3c(c2)OCO3)c1	0	15	-24	·	1	·	0	·
c1ccc(-c2nnc(N3CCN(c4ccccn4)CC3)c3ccccc23)cc1	8	-2	2	17	1.1	2	-14	7
O=C(NCc1ccc2c(c1)OCO2)c1cccc(N2CCCC2=O)c1	3	16	2	27*	1	20	-1	5
O=C(CCCSc1nc(-c2ccco2)cc(C(F)(F)F)n1)NCc1cccs1	5	-6	6	1	1.1	18	-8	5
Cc1ccccc1-n1c(SCc2cc(=O)n3ccccc3n2)nc2[nH]ncc2c1=O	-10	-3	8	7	1.1	14	1	6
COc1ccc(/C(O)=C2/C(=O)C(=O)N(CCCC(=O)O)C2c2ccc(OC)c(OC)c2)cc1 (centres undefined)	-1	-5	18	-1	1.1	13	2	4
O=S(=O)(NC1CCN(Cc2ccccc2)CC1)c1cccc2cccnc12	-2	-5	27	5	0.98	2	-1	3
O=C(O)c1cc(O)ccc1-c1ccc(O)cc1	-3	6	17	5	1	18	3	3

High-throughput results: PubChem BioAssay, several laboratories

These rows are one share of the data. The share of hits here may be higher or lower than overall.
